Screening data deposited in PubChem by National Center for Advancing Translational Sciences (NCATS).
SMN2 splice enh: qHTS Assay for Enhancers of SMN2 Splice Variant Expression; HEK293 SMN2-luciferase splicing reporter, luminescence, 30-36 h; AID 1458, 2008; Potency, µM (top dose mostly 46.1 µM), inactives show at the top dose activity change, positive = activation, hits mostly activators; hit rate 2.8% among 210,000; note: % of control where 0% means no effect; nearly all actives have a fitted effect of over 55% in size
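qHTS luciferase splicing reporter: luminescence rises when SMN2 exon 7 is included in transfected HEK293 cells. Compound exposure lasted 30-36 h at 37C, with 4.5 mM final sodium butyrate as control, followed by a ONE-Glo read.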
RECQ1 helicase: qHTS Assay for Inhibitors of RecQ-Like Dna Helicase 1 (RECQ1) | ATP-dependent DNA helicase Q1 (Homo sapiens), P46063 | RECQ1 DNA unwinding, red fluorescence kinetic read | Potency, µM (top dose mostly 57.3 µM), without a hit: at the top dose activity, negative = inhibition, most hits filed as inhibitors | hit rate 0.54% among 240,000 | AID 2549, 2010;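 note: plate controls were vehicle for no effect and no enzyme for full effect; nearly all actives have a fitted effect of over 30% in size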
Target sequence (P46063 whole entry, looked up): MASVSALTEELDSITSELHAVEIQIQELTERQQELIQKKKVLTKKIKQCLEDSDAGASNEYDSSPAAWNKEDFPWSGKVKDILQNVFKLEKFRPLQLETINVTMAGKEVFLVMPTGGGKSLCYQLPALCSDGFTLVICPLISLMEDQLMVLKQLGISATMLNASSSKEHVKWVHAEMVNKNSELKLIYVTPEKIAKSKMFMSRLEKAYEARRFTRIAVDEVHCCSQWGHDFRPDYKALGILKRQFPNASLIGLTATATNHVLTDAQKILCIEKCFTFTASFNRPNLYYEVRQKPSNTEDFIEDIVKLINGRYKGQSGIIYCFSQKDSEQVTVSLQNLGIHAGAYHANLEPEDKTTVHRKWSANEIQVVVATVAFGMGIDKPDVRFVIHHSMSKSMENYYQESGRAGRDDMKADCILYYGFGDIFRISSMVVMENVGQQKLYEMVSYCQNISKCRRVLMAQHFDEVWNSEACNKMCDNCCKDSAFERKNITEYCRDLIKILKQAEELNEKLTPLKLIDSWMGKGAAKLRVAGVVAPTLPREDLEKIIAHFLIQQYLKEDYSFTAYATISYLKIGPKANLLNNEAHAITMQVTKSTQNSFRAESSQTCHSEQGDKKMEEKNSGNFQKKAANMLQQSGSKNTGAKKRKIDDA
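RECQ1T1 50 nM; forked duplex (20 bp + 30-nt ss tails) 200 nM, ATP 2 mM final; pH 8.0, 2 mM MgCl2, 2.5 ug/ml poly(dI-dC); 15 min compound preincubation; discontinuous kinetic read over 2 h at RT.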
RGS12 GoLoco inh: qHTS Assay for Inhibitors of RGS12 GoLoco Motif Activity (Red Fluorophore) | Potency, µM (series often up to 61.6 µM), for inactives: at the highest dose activity, negative = inhibition, hits mostly inhibitors | Guanine nucleotide-binding protein G(i) subunit alpha-1 (Homo sapiens), P63096 | hit rate 0.44% among 230,000 | Gai1:RGS12 GoLoco peptide FP, rhodamine, 10 min; active = well fitted inhibition curve with a large enough effect, not every such curve was filed as active; inactive = no such curve, though single readings can be large or run the other way; note: % is set by controls: 0 for no effect and ±100 for the full control effect; nearly all actives have a fitted effect of over 30% in size; many of its hits are not listed in these tables
TRb SRC2 PPI: qHTS for Inhibitors of the Interaction of Thyroid Hormone Receptor and Steroid Receptor Coregulator 2; Potency, µM (top dose mostly 106 µM), for the others: at the highest dose activity change, negative = inhibition, most hits filed as inhibitors; Thyroid hormone receptor beta (Homo sapiens), P10828; AID 1469, 2008; TRbeta-SRC2 peptide binding, fluorescence polarization; receptor liganded with 1 µM T3; hit rate 0.065% among 280,000;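 note: plate controls were bound peptide for no effect and peptide without receptor for full effect; nearly all actives have a fitted effect of over 50% in size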
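A fluorescence polarization screen tested compounds at multiple concentrations against complex formation between 0.6 uM TRb ligand-binding domain and 20 nM Texas Red SRC2 peptide, with 1 uM T3 present; readout after 5 hr.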
TexasRed fluor: Total Fluorescence Counterscreen for Inhibitors of the Interaction of Thyroid Hormone Receptor and Steroid Receptor Coregulator 2 | hit rate 0.29% among 280,000 | Potency, µM (doses to about 106 µM), without a hit: top-dose fluorescence change, negative = quenching | TRb/SRC2 Texas Red total fluorescence interference | AID 1479, 2009; active = well fitted curve in either direction with a large enough effect; inconclusive = small, poorly fitted or top-dose-only effect; note: % is set by controls: 0 for no effect and ±100 for the full control effect
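Human TRb ligand-binding domain at 0.6 uM with 20 nM Texas Red SRC2 peptide in Tris buffer containing 1 uM T3 and 5% DMSO, incubated with compound 5 h at ambient temperature. Total fluorescence (555/632 nm) calculated as parallel + 2 × perpendicular.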
Lamin A splicing: qHTS Assay for Modulators of Lamin A Splicing; HeLa LMNA splicing GFP/RFP minigene ratio, 48 h; Potency, µM (doses to about 46.1 µM), for inactives: at the highest dose ratio change, negative = inhibition, usual class: inhibitors; hit rate 0.01% among 200,000; AID 1487, 2009; active = well fitted inhibition curve with a large enough effect in the signal ratio, with a control signal flat, not every such curve was filed as active; inconclusive = small, poorly fitted or top-dose-only effect, or effect the other way, or a change in a side signal; the % refers to the signal ratio; note: % is set by controls: 0 for no effect and ±100 for the full control effect
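Read-out is the ratio of GFP to DsRed2 object intensity, acquired by 488 nm laser-scanning cytometry on HeLa lamin A-EGFP minigene reporter cells. Compound incubation 48 hrs at 37 °C in Opti-MEM with 2% FBS; DMSO 0.5% final.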
ALDH1A1 block: qHTS Assay for Inhibitors of Aldehyde Dehydrogenase 1 (ALDH1A1); Purified ALDH1A1, NADH fluorescence, propionaldehyde substrate; Potency, µM (doses to about 75.3 µM), for inactives: at the top dose activity, negative = inhibition, actives largely listed as inhibitors; hit rate 7.3% among 220,000; AID 1030, 2008; active = well fitted inhibition curve with a large enough effect, not every such curve was filed as active; inconclusive = small, poorly fitted or top-dose-only effect, or another doubt; inactive = no such curve, though single readings can be large or run the other way;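 note: plate controls were no enzyme wells and a reference inhibitor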
Target sequence (P00352 whole entry, looked up): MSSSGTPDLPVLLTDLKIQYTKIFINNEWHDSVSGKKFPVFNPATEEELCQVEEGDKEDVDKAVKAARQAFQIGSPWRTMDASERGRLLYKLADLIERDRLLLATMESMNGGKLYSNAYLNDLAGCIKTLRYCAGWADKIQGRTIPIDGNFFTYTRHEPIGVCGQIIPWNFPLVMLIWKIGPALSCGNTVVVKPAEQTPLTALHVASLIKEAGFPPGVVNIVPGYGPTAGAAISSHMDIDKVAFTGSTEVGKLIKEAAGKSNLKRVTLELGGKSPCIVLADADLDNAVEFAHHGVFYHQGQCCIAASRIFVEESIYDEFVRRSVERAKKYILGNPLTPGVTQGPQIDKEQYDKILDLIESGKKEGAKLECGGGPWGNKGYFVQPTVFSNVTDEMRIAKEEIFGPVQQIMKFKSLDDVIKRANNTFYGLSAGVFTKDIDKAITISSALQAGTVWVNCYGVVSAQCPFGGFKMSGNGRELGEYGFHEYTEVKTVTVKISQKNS
* hit, by the source's call; i = inactive; ? = inconclusive; . = no result given; [ ] = another dose, or the depositor's remark. Unless noted, calls come from the whole dose curve; as a rule, active = well fitted curve in the direction sought with a large enough effect; inconclusive = small, poorly fitted or top-dose-only effect, or another doubt; inactive = no such curve, though single readings can be large; an effect the other way counts as inactive or inconclusive. Potency is the fitted concentration of half-maximal effect.

SMILES | SMN2 splice enh | RECQ1 helicase | RGS12 GoLoco inh | TRb SRC2 PPI | TexasRed fluor | Lamin A splicing | ALDH1A1 block
COc1ccc(CCN2C(=O)c3[nH]nc(-c4ccccc4O)c3C2c2ccccc2)cc1OC (configuration not stated) | -17% | -2% | 3% | 4% | 1% | ? | -2%
O=C(NNc1nc2cc3c(cc2s1)OCCO3)c1ccc(F)cc1 | 24% | 2% | -10% | 2% | -3% | . | 0%
O=C(C1CCCN(Cc2ccccc2F)C1)N1CCc2ccccc2C1 (configuration not stated) | . | -6% | -11% | -2% | -2% | . | .
Cc1ccccc1OCC(=O)OC(C)CN1CCN(C)CC1 (configuration not stated) | 2% | -9% | 8% | 4% | 0% | 5% | 2%
CC(C)CN(C(=O)CN1CCN(c2ccc(O)cc2)CC1)c1c(N)n(CC(C)C)c(=O)[nH]c1=O | 3% | -1% | -3% | 1% | -3% | ? | ?
c1ccc(CNC23CC4CC(CC(C4)C2)C3)nc1 | 1% | 0% | -3% | 0% | -3% | ? | ?
COCCCNCCOCCOc1ccc(Cl)cc1C(C)(C)C | -4% | -13% | 14% | -7% | -1% | ? | -6%
Nc1ccc(S(=O)(=O)NNC(=O)C(=O)NNc2ccccn2)cc1 | 3% | -9% | -2% | -6% | -5% | -6% | 7%
CCOC(=O)c1cnc(-n2[nH]c(C)c(Cc3ccccc3)c2=O)[nH]c1=O | -15% | -18% | 3% | -11% | -2% | . | 6%
CCc1c(C)sc(NC(=S)Nc2cccnc2)c1C(=O)OC | . | 8% | -3% | 8% | -1% | ? | 9.5µM*
COc1nsnc1NS(=O)(=O)c1ccc(NC(=S)NC(=O)c2ccncc2)cc1 | . | 2% | 0% | 5% | -2% | . | .
Cc1[nH]ncc1N=Cc1ccc([N+](=O)[O-])cc1 | 1% | -1% | 3% | 1% | -5% | -5% | ?
COc1ccc(/C=N/Nc2nc(-c3ccc(Cl)cc3)cc(C(F)(F)F)n2)c(OC)c1 | 9% | i | 14% | -5% | -1% | ? | 6%
O=C(CCSc1ccccc1)Nc1nc2c(s1)CCCC2 | 8% | -2% | 0% | -8% | -2% | ? | ?
COc1ccc2c(c1O)Cc1ccccc1C2=O | ? | 12% | 36%[activator] | -2% | 1% | 11% | ?
COCCCNC(=O)c1ccc([N+](=O)[O-])c(Cl)c1 | -21% | -2% | -8% | -6% | -2% | 7% | ?
COc1ccc(NC(=O)CSc2ccc3nnc(-c4cccnc4)n3n2)c(OC)c1 | -12% | 7% | 51%[activator] | -6% | -4% | -16%[46 µM] | 40µM*
Cc1nc(C(F)(F)F)c(C(=O)N/N=C(\N)c2ccccn2)s1 | -87%[inhibitor] | 0% | 2% | 3% | -3% | . | 4%
C=CCc1cc(Cl)ccc1OCCOCCNC(C)(C)C | -20% | 5% | -6% | -3% | -1% | . | ?
CCOc1cc(/C=N/Nc2cccc(C(=O)O)c2)ccc1OCC(=O)N1CCCCC1 | 11µM* | 2% | -1% | -6% | -3% | -7%[46 µM] | ?
COC(=O)c1ccc(CN2C(=O)C3CCCCC3C2=O)o1 (configuration not stated) | . | 11% | 19% | -4% | -3% | ? | 0%
COc1cccc(C(Nc2ccccn2)c2oc(CO)cc(=O)c2O)c1 (configuration not stated) | -17% | -1% | -2% | 2% | 0% | . | ?
CCOCCCNCC(=O)NCC1CCCCC1 | . | i | -15% | -3% | 7% | 10%[46 µM] | -10%
O=c1cnc(-c2ccc(Cl)cc2)cn1O | 7% | 3% | 10% | -3% | -5% | . | ?
O=C(C1=C(O)C(=O)N(CCc2ccccc2)C1c1ccncc1)c1cc2ccccc2o1 (configuration not stated) | -13% | i | 6% | 1% | 3% | . | 19µM*
Cn1cnnc1Sc1ccc(C(=O)NCCC(c2ccccc2)c2ccccc2)cc1[N+](=O)[O-] | -4% | i | -17% | 4% | -3% | 8% | 20µM*
CCOC(=O)CSc1ccc2nnc(-c3cccnc3)n2n1 | -8% | 0% | -12% | -9% | -1% | -14% | ?
N#Cc1ccc2c(c1)NC(=O)C1CCCN21 (configuration not stated) | 19% | -3% | 34%[activator] | -2% | -1% | . | ?
CCCOc1ccc(C2C(C(=O)/C=C/c3ccco3)=C(O)C(=O)N2CCN2CCOCC2)cc1OC (configuration not stated) | -14% | i | 23% | 3% | 0% | ? | -3%
CC1CCCC(NCC(O)COC(c2ccc(F)cc2)c2ccc(F)cc2)C1C (configuration not stated) | -16% | i | 5% | 8% | 0% | -12%[46 µM] | ?
O=C(c1ccccc1)c1ccc2nc(-c3ccc(NC(=O)c4ccccc4Br)cc3)[nH]c2c1 | -30% | -17% | 13% | 6% | 1% | 8% | ?
CCN(CC)CCNC(C(=O)Nc1cccc(C(C)=O)c1)c1ccccc1 (configuration not stated) | . | i | 0% | -1% | -3% | . | 14µM*
C=CCc1ccc(OCC(O)COCC)c(OC)c1 (configuration not stated) | 13µM* | i | -4% | 0% | 3% | 10% | 28µM*
N=c1c2c(-c3ccccc3)c(-c3ccccc3)oc2ncn1Cc1ccco1 | -26% | -36% | -1% | 5% | 1% | -1%[0.0737 µM] | ?
C=CCc1cccc2cc(C(=O)NC3CCCCC3)c(=O)oc12 | -44% | -14% | 0% | -1% | -2% | . | ?
Oc1cccc(/C=N/Nc2cc(N3CCOCC3)nc(N3CCOCC3)n2)c1 | -25% | -3% | 9% | 8% | -8% | ? | ?
CN(C)CCCOc1cccc(Oc2ccccc2)c1 | -38%[inhibitor] | 0% | -4% | -3% | -2% | 13% | ?
Cc1cccc2sc(NNC(=O)c3cc(-c4cccs4)nc4ccccc34)nc12 | -72% | -17% | 14% | 9% | -1% | ? | ?
CCOc1ccc(OCCN2CCCCC2)cc1 | 8% | -3% | 0% | 0% | 0% | 11% | -6%
OCCNCCCCCOc1ccc(F)cc1 | 6% | -13% | 7% | -2% | -1% | 6% | -9%
O=C(CNCc1ccco1)Nc1cc(S(=O)(=O)N2CCOCC2)ccc1N1CCCC1 | . | i | 0% | -3% | 2% | . | ?
Cc1cc2n(n1)C(c1cccs1)Nc1ccccc1-2 (configuration not stated) | 12% | -8% | 6% | 0% | -6% | -1% | -4%
O=C(NCC(=O)N(Cc1cccs1)C(C(=O)NC1CCCC1)c1ccncc1)c1ccco1 (configuration not stated) | -5% | -27% | 10% | -6% | -3% | 10% | 7.9µM*
COc1cc(OC)c(CNC2CCCCCC2)cc1Br | -13% | -1% | -5% | 2% | -1% | . | 7.9µM*
CC(=O)CCc1ccc(OCCCCN2CCC(Cc3ccccc3)CC2)cc1 | -23% | i | 8% | 1% | -2% | -16%[46 µM] | -14%
CCn1nc(NC(=O)c2ccccn2)c2cc3cccc(C)c3nc21 | -15% | -12% | 25% | -4% | 6% | 0% | ?
COc1cc(C2=N/C(=C\c3ccccc3)C(=O)O2)cc(OC)c1OC | -2% | -7% | -4% | 1% | -1% | . | ?
CCc1nc(SCC(=O)c2ccccc2)c2ccccc2n1 | . | i | 9% | 0% | -7% | ? | ?
Cc1nnc(N/N=C/c2c(Cl)cccc2Cl)n1N | -19% | i | 74%[activator] | 11% | -3% | -1%[46 µM] | -5%
Cc1nc(N2CCOCC2)c2c(C)c(C(=O)Nc3ccccc3Cl)sc2n1 | -17% | -1% | 2% | -9% | -4% | . | 91%[activator]

Next section:
SMILES | SMN2 splice enh | RECQ1 helicase | RGS12 GoLoco inh | TRb SRC2 PPI | TexasRed fluor | Lamin A splicing | ALDH1A1 block
COc1ccc(OC)c(-n2c(-c3cc(-c4ccc(F)cc4)n[nH]3)n[nH]c2=S)c1 | . | -3% | . | 2% | -1% | -1% | -9%
O=C(NCCCNCCCNC(=O)c1ccc(/C=N/O)nc1)c1ccc(/C=N/O)nc1 | . | -4% | 4% | 3% | -1% | . | .
Cc1c(C(=O)O)sc2nc(SCC(=O)Nc3ccc(S(=O)(=O)NC(C)(C)C)cc3)[nH]c(=O)c12 | 4% | 8% | 10% | -5% | -3% | . | ?
C=CCc1cc(C=O)cc(OCC)c1O | . | 2% | 10% | 0% | -7% | . | -7%
COCCNCCCOc1ccc(C(C)(C)c2ccccc2)cc1 | 12% | i | -4% | -10% | -2% | 13% | ?
COc1cnc(-c2ccccn2)[nH]c1=O | -75%[inhibitor] | i | -3% | 9% | -1% | ? | 10%
O=C(COc1ccc(Cl)cc1)Nc1nnc(-c2ccc3c(c2)CCCC3)o1 | ? | 3% | 0% | 4% | -4% | ? | 3%
COc1cc(C)ccc1OCCOCCOc1cccc2ccc(C)nc12 | 1% | i | 7% | -7% | 1% | -7%[46 µM] | ?
CCc1cccc(NC(=O)C(NC(=O)C2CCCCC2)C(C)C)c1 (configuration not stated) | -24% | 3% | -9% | -4% | -2% | . | 10%
COc1ccc(C(c2oc(CO)cc(=O)c2O)c2oc(CO)cc(=O)c2O)cc1OC | ? | i | -11% | 2% | 1% | 2%[46 µM] | 7%

Ordered by count of non-hydrogen atoms (low to high): 3 of the compounds above.
SMILES | SMN2 splice enh | RECQ1 helicase | RGS12 GoLoco inh | TRb SRC2 PPI | TexasRed fluor | Lamin A splicing | ALDH1A1 block
COc1cnc(-c2ccccn2)[nH]c1=O | -75%[inhibitor] | i | -3% | 9% | -1% | ? | 10%
O=C(COc1ccc(Cl)cc1)Nc1nnc(-c2ccc3c(c2)CCCC3)o1 | ? | 3% | 0% | 4% | -4% | ? | 3%
Cc1c(C(=O)O)sc2nc(SCC(=O)Nc3ccc(S(=O)(=O)NC(C)(C)C)cc3)[nH]c(=O)c12 | 4% | 8% | 10% | -5% | -3% | . | ?

Going on with the list:
SMILES | SMN2 splice enh | RECQ1 helicase | RGS12 GoLoco inh | TRb SRC2 PPI | TexasRed fluor | Lamin A splicing | ALDH1A1 block
CC(C)(C)c1ccc(OCC(=O)NNC(=O)c2cccnc2)cc1 | . | -7% | 9% | -11% | -4% | . | 6%
COc1ccc(CN(C)CC(=O)Nc2ccc(Cl)cc2C(F)(F)F)c(OC)c1 | -5% | -5% | 5% | 1% | -14% | ? | ?
NC(=O)C1=C[C@@H](c2ccccc2)C[C@@H](OCc2ccc(CO)cc2)O1 | . | 2% | 5% | 4% | 0% | . | -3%
C[C@@H]1c2ccccc2CN1CC1=NCCN1 | . | -3% | -18% | 6% | 1% | . | -14%

A portion of the library; the hit share may differ from the screen's.
